High-throughput results: PubChem BioAssay, National Center for Advancing Translational Sciences (NCATS)
VACV mCherry inh – vaccinia inhibition (mCherry reporter); hit rate 0.63% among 310,000; Vaccinia virus mCherry reporter infection, fluorescence; about a quarter of the inactives have no number; Potency, µM (titrated, usually from 36.5 µM), for the others: at the highest dose activity change, negative = inhibition, most hits filed as inhibitors; active = well fitted inhibition curve with a large enough effect; inconclusive = small, poorly fitted or top-dose-only effect; inactive = no such curve, though single readings can be large or run the other way; tested in A549 cells; note: nearly all actives have a fitted effect of over 35% in size; inactives centre near -10
Vaccinia Venus – vaccinia inhibition (Venus reporter) | Vaccinia virus Venus reporter expression, fluorescence | Potency, µM (series often up to 36.5 µM), for the others: at the top dose activity change, negative = inhibition, hits mostly inhibitors | hit rate 0.46% among 330,000 | AID 720580; active means well fitted inhibition curve with a large enough effect; inconclusive means small, poorly fitted or top-dose-only effect; inactive means no such curve, though single readings can be large or run the other way; tested in A549 cells; note: nearly all actives have a fitted effect of over 30% in size; inactives centre near -10
* = called active by the depositor; i = inactive; ? = inconclusive; / = no result given; & = joins results of further samples; [ ] = another dose, or the depositor's remark. % is set by controls: 0 for no effect and ±100 for the full control effect; potency is the fitted concentration of half-maximal effect.

molecule,VACV mCherry inh,Vaccinia Venus
CCOc1ccc(CNC(=O)C2CCCN(S(=O)(=O)N(CC)c3ccc(OCC)cc3)C2)cc1 (centres undefined),-22%,-16%
CCC(C)(C)C1CCc2[nH]nc(C(=O)NC(C)C)c2C1 (centres undefined),?,?
C/C(=N\OCC(=O)NCC(F)(F)F)c1cc2ccccc2o1,-9%,-10%
COc1ccc(OC)c(NC(=O)CSc2nnc(-c3ccco3)n2-c2ccc(C(=O)O)cc2)c1,-12%,4%
COc1ccc(-c2csc(NC(=O)c3ccccc3S(C)(=O)=O)n2)cc1,i,-7%
CC(C)(C)OC(=O)Nc1ccccc1-n1nnnc1C(C(=O)c1ccccc1)N1CCN(c2ccccn2)CC1 (centres undefined),-18%,3%
CC(C)CNC(C)C(=O)Nc1ccc(S(N)(=O)=O)cc1 (centres undefined),10%,0%
COc1cccc(C(NC(C)=O)c2nc(-c3ccc(F)c(Cl)c3)cs2)c1 (centres undefined),i,-6%

Following part:
molecule,VACV mCherry inh,Vaccinia Venus
Cn1c(C(=O)O)c(CC(=O)NCC2COc3ccccc3O2)c2ccccc21 (centres undefined),i,-21%
Cc1c(Cl)cccc1NC(=O)c1ccco1,-18%,-10%
O=C(CSc1ccc2c(c1)OCCO2)NCCc1ccc(Cl)cc1Cl,-2%,-1%
CN1CCN(c2cc(-c3ccc4ccccc4c3)nc3ccnn23)CC1,-1%,7%
CCc1ccc(N(CC(=O)NC2CCCCC2)C(=O)CCC(=O)Nc2ccccn2)cc1,-1%,2%
O=c1oc2ccc(Cl)cc2cc1-c1nnc(Nc2cccc(C(F)(F)F)c2)s1,3%,-5%
COc1ccc(NC(=O)c2ccc(C#CC(C)(C)O)cc2)cc1,-10%,-6%
COc1ccc(CC(=O)N2CCc3cc(OC)c(OC)cc3C2COc2ccc3c(C)cc(=O)oc3c2)cc1OC (centres undefined),-4%,-5%

(continued)
molecule,VACV mCherry inh,Vaccinia Venus
Cc1ccc2[nH]c3c(c2c1)CCN1C(=O)OC(C)(C)C31C (centres undefined),-8%,-15%
S=C1NCCC12C(=S)Nc1ccccc12 (centres undefined),5%,-4%
CCn1c(C)c(C(C)=O)c(N2CCN(C(c3ccccc3)c3ccccc3)CC2)nc1=S,i,0%
Cc1cccc(N2C(=O)c3cccc4c(N(C)CCO)ccc(c34)C2=O)c1,-5%,73%[activator]
CCCCNC(=O)C1c2ccccc2OCC(=O)N1Cc1ccc2c(c1)OCO2 (centres undefined),24%,-4%
Cc1ccccc1-c1ccc(C(=O)NCc2ccccc2)o1,-16%,?
COc1ccccc1N(C)S(=O)(=O)c1ccc(C(=O)Nc2ccc(C)cc2C)cc1,-5%,-16%
Cc1cccc(NS(=O)(=O)c2ccc3c(c2)OCCO3)c1,-6%,-14%

Reprinted from the part before: 3 entries; new compounds follow.
molecule,VACV mCherry inh,Vaccinia Venus
Cc1ccccc1-c1ccc(C(=O)NCc2ccccc2)o1,-16%,?
COc1ccccc1N(C)S(=O)(=O)c1ccc(C(=O)Nc2ccc(C)cc2C)cc1,-5%,-16%
Cc1cccc(NS(=O)(=O)c2ccc3c(c2)OCCO3)c1,-6%,-14%
Cc1cccc(-c2nc(CS(=O)CC(=O)NCC3CCCO3)c(C)o2)c1 (centres undefined),i,-8%
Cc1ccc(-c2nc3ccc(Cl)cc3c(=O)n2O)cc1,-13%,-13%
C=CCn1c2ccccc2c2nnc(SCC(N)=O)nc21,-14%,-9%
C[C@H](CO)N1C[C@H](C)[C@@H](CN(C)C)Oc2c(NC(=O)CCCCCC(=O)Nc3ccccc3N)cccc2C1=O,i,-27%
Cc1ccc(C(=O)c2c3ccccc3[n+]([O-])n2[C@@H](C)C(N)=O)cc1,-16%,2%
OCC[N+]12CCC(CC1)C(C(O)(c1ccccc1)c1ccccc1)C2 (centres undefined),-2%,-4%
O=C(O)c1cc(Sc2ccc(Br)cc2)nc2ccccc12,-1%,-3%
CS(=O)(=O)c1ccc(Cl)c(NC(=O)c2cccc(N3C(=O)CCC3=O)c2)c1,-10%,-1%

The list goes on.
molecule,VACV mCherry inh,Vaccinia Venus
CC(=O)c1cccc(NC(=O)CCS(=O)(=O)c2cccc3nonc23)c1,-11%,-7%
COc1ccc(/C=C2\CCCCC2=O)cc1,-7%,10%
OCCOCCNc1ncnc2nc[nH]c12,-28%,-3%
CN(Cc1ccncc1)C1CC(=O)N(c2ccc(Cl)cc2)C1=O (centres undefined),/,-34%
CCn1cc(C(=O)NCc2ccc(Cl)cc2)c(=O)c2cc(S(=O)(=O)N3CCc4ccccc4C3)ccc21,-29%,-18%
O=C(Nc1ccc(F)cc1)Nc1nnc(SCC(=O)N2CCCCC2)s1,-3%[7.34 µM],-5%[7.34 µM]
Cc1ccc(NC(=O)CSc2cn(CC(=O)N3CCCCCC3)c3ccccc23)cc1,-1%,-14%
COc1ccccc1-c1csc(Cc2nnc3n2CCCCC3)n1,-3%,-8%

Continued:
molecule,VACV mCherry inh,Vaccinia Venus
O=C(Cc1ccc(S(=O)(=O)N2CCCCC2)s1)Nc1cccc2ccccc12,-14%,-1%
NC(=O)c1ccccc1NC(=O)/C=C/C(=O)O,-3%,6%
C=CCNC(=S)N1CCN(c2cccc(C(F)(F)F)c2)CC1,-26%,-14%
OCCCNCc1cccc2ccccc12,/,?
O=C1NC(=O)C2(CCCCCC2)N1,-11%,6%
Cc1cccc2c(=O)c(C(=O)NCc3cccs3)c[nH]c12,-27%,?
COCCNC(=O)C(c1ccc(F)cc1)N(Cc1ccccc1)C(=O)CCC(=O)Nc1ccccn1 (centres undefined),8%,-7%
O=C(Nc1c(Cl)cccc1Cl)c1cc(=O)n(Cc2ccccc2)c(=O)[nH]1,i,-8%

Continuation:
molecule,VACV mCherry inh,Vaccinia Venus
CN(Cc1ccccc1)C(=O)c1[nH]cnc1C(=O)NCCCCCNC(=O)OC(C)(C)C,?,-18%
O=C(Nc1cccc(S(=O)(=O)N2CCCCCC2)c1)C1CCN(C(=O)c2ccc(Cl)cc2)CC1,-17%,?
CCCCc1ccc(S(=O)(=O)Nc2cc(C)on2)cc1,-10%,-1%
CNC(=O)c1sc(-c2ccc(Cl)cc2)nc1C,/,-14%
NNC(=O)c1[nH]c2ccc(Cl)cc2c1-c1ccccc1,-27%,?
CC(=O)N1CCOc2ccc(S(=O)(=O)N3CCC(C(=O)NCc4ccc(C)cc4)CC3)cc21,i,-15%
CC(=O)N(CC(C)C(=O)O)c1c(I)cc(I)c(N)c1I (centres undefined),-1%,-18%
O=C(O)CCC(=O)Nc1ccc(SSc2ccc(NC(=O)CCC(=O)O)cc2)cc1,-5%,6%

(list continues)
molecule,VACV mCherry inh,Vaccinia Venus
OCC1(Cc2ccccc2)CCN(C2CCN(c3ccc(F)c(F)c3)CC2)CC1,-15%,1%
Cc1cc(Cl)ccc1NS(=O)(=O)c1cc2[nH]c(=O)c(=O)[nH]c2cc1C,-3%,3%
CCCC(=O)NCCc1nc2ccccc2n1CC(=O)c1ccccc1,-14%,-13%
Cc1ccc2n(n1)c(=O)c(Cc1ccccc1)c([O-])[n+]2-c1ccccc1,-9%,-3%
CCOc1ccc(N(CC(=O)Nc2ccc(C)c(C)c2)S(=O)(=O)c2c(C)[nH]c(=O)[nH]c2=O)cc1,8%,-4%
COc1ccc(/C=C/CN2CCC(CO)(Cc3ccccc3Cl)CC2)cc1,-12%,-16%
O=C1c2ccccc2S(=O)(=O)N1Cc1cc(=O)n2ccsc2n1,-10%,2%
N#Cc1ccsc1NC(=O)COC(=O)CCS(=O)(=O)c1ccccc1,i,-8%

(list continues)
molecule,VACV mCherry inh,Vaccinia Venus
CN(C)Cc1c(C(=O)N/N=C/c2ccco2)nnn1-c1nonc1N,-11%,-10%
COC(=O)c1ccc(CNC(=O)COC(=O)c2cccs2)cc1,-12%,7%
O=C1CC(/C=C/c2ccccc2)(C(=O)NC2CCCC2)N1c1ccc(S(=O)(=O)N2CCCC2)cc1 (centres undefined),-15%,-5%
COC(=O)C1=C(C)N(Cc2ccccc2)C(=NCCc2cccnc2)N[C@H]1c1ccc(Br)cc1,?,13µM*
COc1ccc(-c2ccc3nnc(SCC(=O)NCC4CCCO4)n3n2)cc1 (centres undefined),-24%,-15%
Cc1ccc(CNC(=O)c2cccnc2Cl)cc1,i,-11%
O=C(O)/C=C\C(=O)Nc1cccc(NC(=O)c2ccccc2)c1,-5%,0%
Cc1ccc(NS(=O)(=O)c2cccc([N+](=O)[O-])c2)nc1,-5%,-5%

The list goes on:
molecule,VACV mCherry inh,Vaccinia Venus
O=C(NCc1ccco1)c1ccc(N2CCCCC2)c([N+](=O)[O-])c1,i,-13%
COc1ccc(Br)cc1-c1noc(-c2ccccc2F)n1,i,0%
COC(=O)c1ccc(CSc2nc3c(c(=O)[nH]2)CCC3)cc1,27%&-5%,-12%&-9%
CC(C)c1nc2sc3c(NCc4ccccc4)ncnc3c2c2c1COC(C)(C)C2,/,-5%
CC(C)CC1=NN(C(=O)c2ccco2)C(O)(C(F)(F)F)C1 (centres undefined),-1%,-11%
C=C1C=C(C(F)F)n2ncc(C(=O)NCc3ccc(OC)cc3)c2N1,1%,-11%
COc1ccc(CN(CC(=O)NCC2CCCO2)C(=O)CCC(=O)Nc2cc(C)on2)cc1 (centres undefined),i,-12%
CCCCCn1c(=O)c(C(=O)Nc2c(C)n(C)n(-c3ccccc3)c2=O)c(O)c2ccccc21,-8%,-3%

(further entries)
molecule,VACV mCherry inh,Vaccinia Venus
O=C(Nc1cccc2cccnc12)c1cc(F)c(F)cc1Cl,-9%,-9%
O=C(NCCCn1ccnc1)c1nn2c(C(F)(F)F)cc(-c3ccccc3)nc2c1Cl,i,-29%
C=CCNC(=O)C1CCN(c2nc(C)cc(-c3ccccc3)n2)CC1,-3%,-15%
O=C(COc1ccccc1)OCC(=O)N1CCCc2ccccc21,i,-12%
CCOc1ccc(OCCC(=O)N2CCc3cc(OC)c(OC)cc3C2)cc1,-25%,-11%
COCCCNC(=O)c1cc(Sc2ccc(F)cc2)nc2ccccc12,-21%,-15%
CCN(c1ccccc1)S(=O)(=O)c1ccc(NC(=O)c2nc(SC(C)C)ncc2Cl)cc1,-16%,-5%
N#Cc1cc([N+](=O)[O-])ccc1N1CCCC1,-8%,2%

Next structures.
molecule,VACV mCherry inh,Vaccinia Venus
O=C(CSc1nnc(CNC(=O)c2c(F)cccc2Cl)o1)Nc1ccccc1,-14%,-18%
Cc1nn(-c2cccc([N+](=O)[O-])c2)c(N)c1-c1ccccc1,i,2%
Cc1c(-c2ccccc2)oc2c(C(=O)N3CCN(c4ccc([N+](=O)[O-])cc4)CC3)cccc2c1=O,-28%,?
CNC(=O)c1ccsc1NC(=O)CS(=O)(=O)c1ccc(F)cc1,i,-5%
CC1CCCN(Cc2nc3c(c(=O)n(C)c(=O)n3C)n2CCCc2ccccc2)C1 (centres undefined),/,-4%
O=C(CCN1C(=O)c2ccccc2S1(=O)=O)NCc1ccccc1Cl,-13%,-10%
CN(Cc1ccccc1)C(=O)CSc1n[nH]c(N)n1,i,-3%
Cc1sc2ncnc(N3CCC(C(=O)N(C)CC(=O)Nc4ccccc4Cl)CC3)c2c1C,-24%,-28%

Later entries.
molecule,VACV mCherry inh,Vaccinia Venus
CC(C)c1cccc(-c2ccc3c(c2)S(=O)(=O)c2cccc(C(=O)NCc4ccccc4)c2C3=O)c1,-15%,?
Cc1c(C#N)c(O)n(CCO)c(=O)c1N=Nc1ccc2c(c1)COC2=O,-13%,-10%
CN(C)CCCOC(=O)c1ccc(Br)cc1,-5%,?
CCOC(=O)/C(C#N)=C/c1cn(CCC(=O)O)nc1-c1ccc(Br)cc1,-3%,3%
COc1ccc(NC(=O)c2cccnc2)cc1,-13%,-6%
COc1cccc(NC(=O)c2ccc3snnc3c2)c1,/,-18%
Cc1ccc(NC(=O)NCc2cccnc2)cc1C,-18%,-12%
CCOc1ccc(C(=O)NCC(=O)OCC(=O)Nc2ccccc2OCC)cc1,-6%,8%

(next part)
molecule,VACV mCherry inh,Vaccinia Venus
O=C(CN(C(=O)CNS(=O)(=O)c1ccccc1)C1CCCC1)NCC1CCCO1 (centres undefined),/,-19%
COc1cccc2c1CCC(NC(C)=O)C2=O (centres undefined),i,-8%
COCc1ccc(C(=O)N2CCCC(CNC(=O)c3ccc(F)cc3)C2)o1 (centres undefined),i,-11%
CN(CCOc1ccc(Br)cc1)C(=O)CNC(=O)c1ccc2ccccc2c1,i,-12%
N#Cc1c(-c2ccccc2)ccnc1N1CCOCC1,-22%,-13%
OC(c1ccccc1)c1ccncc1 (centres undefined),i,1%
O=[N+]([O-])c1ccc(N2CCN(S(=O)(=O)c3ccc(Cl)c(Cl)c3)CC2)cc1NCCN1CCOCC1,-10%,-13%
CCCC(=O)N1CCc2cc(OC)c(OC)cc2C1COc1ccc2c(C)cc(=O)oc2c1 (centres undefined),-11%,-1%

Next part
molecule,VACV mCherry inh,Vaccinia Venus
CCOC(=O)c1sc2ccccc2c1OC(=O)c1ccc(C)cc1,-13%,-5%
COc1ccc(-c2cc(C(=O)Nc3sc4c(c3C#N)CCCC4)c3ccccc3n2)cc1,-3%,10%
COc1ccc(C(=O)CC(=O)C(=O)Nc2ccc(OC)c(Cl)c2)cc1,-17%,0%
CC(NC(N)=O)C(=O)Nc1ccc(Cl)c(S(=O)(=O)Nc2ccc(Br)cc2)c1 (centres undefined),i,-7%

This is a random part of the collection; 0.87% or so of the library scored in one or more.
